Screening data: PubChem, National Center for Advancing Translational Sciences (NCATS)
ClpP mod: qHTS Assay for Activators of ClpP. purified B. subtilis ClpP, FRET peptide cleavage, 20 min. ATP-dependent Clp protease proteolytic subunit (Bacillus subtilis (strain 168)), P80244. actives 1.9% (n = 340,000). Potency, µM (highest dose often 57.5 µM), inactives show top-dose activity change, negative = active. AID 651965, 2013; active = well fitted falling curve with a large enough effect; inconclusive = small, poorly fitted or top-dose-only effect; inactive = no such curve, though single readings can be large or run the other way; note: potency is the fitted concentration of half-maximal effect; the source files actives as falling curves though it sought activators and does not explain the sign; nearly all actives have a fitted effect of over 65% in size; many hits overshoot -100%
Target sequence (P80244 whole entry, looked up): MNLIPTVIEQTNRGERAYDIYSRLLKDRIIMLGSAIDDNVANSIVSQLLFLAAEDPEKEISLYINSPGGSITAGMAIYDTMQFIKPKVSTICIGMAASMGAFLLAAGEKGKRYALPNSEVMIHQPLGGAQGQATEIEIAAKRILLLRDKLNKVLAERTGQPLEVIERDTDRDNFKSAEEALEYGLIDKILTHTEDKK
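Purified B. subtilis ClpP, 10 microg/mL final in Tris/HCl pH8 with KCl, BSA, glycerol and Tween-20, cleaved an Abz/nitrotyrosine-quenched decapeptide. Fluorescence (ex 320, em 430) was read at 0 and 20 min at room temperature. Delta was normalized to 5.8 microM ADEP and DMSO/no-enzyme controls.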
Menin MLL FP FL: inhibitors of human menin-MLL interaction, wild-type MLL peptide; Fluorescence polarization, fluorescein-MLL peptide displacement from menin; 290,000 tested, under 10 active; FP activity change, % at 61.4 µM; inconclusive = falling polarisation curve, or a change in total fluorescence; inactive = total fluorescence flat and polarisation flat or rising; no compound was filed as active; the % refers to the polarisation; negative = inhibition;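 note: % of control where 0% means no effect; inhibitors lower the polarisation; unlabelled MLL peptide was the positive control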
TRPV1 PAM: potentiators of human vanilloid receptor 1 (TRPV1) | Q8NER1 | TRPV1-expressing cells, Fluo-8 calcium influx, capsaicin EC20 potentiation; host cell line not named in the record; control for the full effect not named in the record | potentiation, % at 8.33 µM | actives 0.02% (n = 320,000) | AID 540277; active means potentiation above 80%; inconclusive means 30% to 80%; inactive means below 30%; note: 0% is about no effect
Target sequence (Q8NER1 whole entry, looked up): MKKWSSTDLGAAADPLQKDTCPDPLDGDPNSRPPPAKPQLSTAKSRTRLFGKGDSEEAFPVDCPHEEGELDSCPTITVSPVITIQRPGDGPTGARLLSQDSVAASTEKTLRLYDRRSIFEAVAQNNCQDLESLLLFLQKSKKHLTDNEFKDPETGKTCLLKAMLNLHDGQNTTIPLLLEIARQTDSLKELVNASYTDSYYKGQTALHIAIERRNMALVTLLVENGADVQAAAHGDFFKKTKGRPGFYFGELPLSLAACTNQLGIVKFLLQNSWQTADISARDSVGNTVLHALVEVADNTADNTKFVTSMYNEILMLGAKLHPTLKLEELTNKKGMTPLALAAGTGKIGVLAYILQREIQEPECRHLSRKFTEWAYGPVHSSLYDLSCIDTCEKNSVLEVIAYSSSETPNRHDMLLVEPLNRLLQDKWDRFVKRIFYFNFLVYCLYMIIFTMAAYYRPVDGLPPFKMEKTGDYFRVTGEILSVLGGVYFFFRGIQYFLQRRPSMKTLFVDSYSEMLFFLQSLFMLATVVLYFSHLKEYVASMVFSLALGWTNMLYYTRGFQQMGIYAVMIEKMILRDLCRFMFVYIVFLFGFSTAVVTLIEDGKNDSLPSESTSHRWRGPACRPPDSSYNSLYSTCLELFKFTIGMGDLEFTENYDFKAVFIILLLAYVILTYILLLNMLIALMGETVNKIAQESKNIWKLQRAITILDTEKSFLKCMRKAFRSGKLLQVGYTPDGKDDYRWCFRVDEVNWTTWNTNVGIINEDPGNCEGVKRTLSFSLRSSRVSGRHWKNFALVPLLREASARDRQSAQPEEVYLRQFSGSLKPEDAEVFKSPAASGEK
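TRPV1-expressing cells were cultured overnight at 35.5C and loaded with Fluo-8 calcium dye for 40 to 90 min at room temperature. After a 10 s baseline, compound was added and calcium influx was read kinetically for 3 min (ex 480/em 520 nm).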
CtBP-E1A blk: blocks the CtBP interaction with E1A. AlphaScreen GST-E1A/His-CtBP binding, 1536-well; hits give low values; control for the full effect not named in the record. activity change, % (concentration not given with the values). actives 0.49% (n = 340,000); in the data active means activity change below about -65%; inconclusive means about -30% to -65%; inactive means above about -30%; note: % is set by controls: 0 for no effect and ±100 for the full control effect
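Protein mix (5X: 125 nM each GST-E1A, His-CtBP) was incubated with pinned compound 2 h at 37 deg C in dark, in 50 mM Tris pH 8.0 buffer with 300 mM NaCl. Glutathione donor and nickel acceptor beads followed; AlphaScreen signal read after 1 h.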
gsp ag: gsp mutant agonism | Potency, µM (highest dose often 76.9 µM), inactives show at the highest dose activation (cAMP increase), usual class: activators | gsp mutant cells, cAMP HTRF, 30 min; control for the full effect not named in the record | actives 0.13% (n = 340,000) | AID 624287; active = well fitted activation curve with a large enough effect; inconclusive = small, poorly fitted or top-dose-only effect, or another doubt; inactive = no such curve, though single readings can be large or run the other way; cell line not stated here;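 note: phosphodiesterase inhibitor Ro 20-1724 added with compounds to block cAMP breakdown; potency is the fitted concentration of half-maximal effect; nearly all actives have a fitted effect of over 60% in size; about a fifth of the inactives were tested at one dose only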
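Cells in DMEM/10% FBS with G418 were pretreated with compounds in DMSO plus […] (300 uM stock) for 30 min at 37C. cAMP was measured by HTRF (cAMP-d2 plus anti-cAMP antibody-K) after 30 min at room temperature.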
gsp antagonist: antagonizes gsp, the McCune-Albright syndrome mutation; actives 0.4% (n = 340,000); AID 624288; gsp-mutant cells, cAMP HTRF, 30 min; control for the full effect not named in the record; Potency, µM (series often up to 76.9 µM), for the others: at the highest dose activity change, negative = inhibition, actives largely listed as inhibitors; active = falling curve of any shape with a large fitted effect; inconclusive = falling curve, mostly with a smaller effect; inactive = flat or rising curve; cell line not stated here;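 note: intracellular cAMP measured with PDE inhibitor Ro 20-1724 present during compound exposure; potency is the fitted concentration of half-maximal effect; % is set by controls: 0 for no effect and ±100 for the full control effect; nearly all actives have a fitted effect of over 65% in size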
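G418-selected cells were plated in DMEM/10% FBS for 16-24 h at 37C, then treated with compounds plus the PDE inhibitor […] (300 uM solution added) for 30 min at 37C. Intracellular cAMP was measured by HTRF after 30 min lysis at room temperature.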
Sfp inh: blocks B. subtilis Sfp PPTase activity; Biochemical Sfp PPTase activity, qHTS; Potency, µM, without a hit: max response, negative = inhibition, actives largely listed as inhibitors; actives 3.5% (n = 310,000); Q9F4F7; active = well fitted inhibition curve with a large enough effect; inconclusive = small, poorly fitted or top-dose-only effect, or another doubt; inactive = no such curve, though single readings can be large or run the other way;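 note: the enzyme is Sfp with the accession as filed and its product quenches rhodamine fluorescence; potency is the fitted concentration of half-maximal effect; 0% = enzyme reaction without inhibitor and -100% = no enzyme wells; top concentration of the series not given in the record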
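Compounds were incubated with enzyme (final 15 nM) for 15 min at room temperature before substrate addition started the reaction. Fluorescence at 525 nm excitation, 598 nm emission was recorded immediately and after 30 minutes.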
* marks the source's active call; other numbers are inactive results; ? = inconclusive; nt = no result given; [ ] = another dose, or the depositor's remark.

SMILES | ClpP mod | Menin MLL FP FL | TRPV1 PAM | CtBP-E1A blk | gsp ag | gsp antagonist | Sfp inh
CC(C)(C)NC(=O)CC1C[C@H](C(=O)N2CCCCC2)[C@@]2(C)c3[nH]c4ccccc4c3CCN2C1=O (stereo not given in full) | -3.1% | nt | nt | -22 | nt | 1% | nt
O=C(NCCCNC(=O)c1ccco1)c1cccc(F)c1 | nt | -2.7 | ? | 2 | -3% | 8% | 14%
Cc1nnc(NC(=O)CCN2C(=O)C3CC=CCC3C2=O)s1 (stereo not given) | 1.6% | nt | nt | -2 | -2% | nt | nt
COc1ccc(Cl)cc1NC(=S)NNC(=O)c1cccs1 | 5.0% | -0.7 | 8 | -17 | -33%[inhibitor] | -26% | 16%
CC(C)(/C=N/O)/[N+]([O-])=C/c1ccccc1 | nt | 1.2 | 15 | -15 | -1%[15.4 µM] | 12% | 8%
CCOc1ccccc1NC(=S)NC(=O)CCc1ccccc1 | 0.3% | -3.2 | -36 | 9 | -43%[inhibitor] | -11% | -2%
O=C(c1cnn2ccccc12)N(Cc1ccco1)C1CCCC1 | -22% | 4.1 | nt | -5 | -15% | -4% | 6%
O=C(CSc1nnc(-c2ccccc2)n1C1CCCCC1)N1CCCC1 | 0.4% | -1.6 | -33 | 3 | -3% | -6% | 5%
Clc1ccc(CSc2nnc(-c3ccncc3)s2)cc1 | -0.8% | ? | 0 | 2 | -3%[15.4 µM] | 9% | 13%
O=C(C1=C[C@H](c2ccccc2)C[C@H](OCCCCO)O1)N1CCN(Cc2ccc3c(c2)OCO3)CC1 | -2.9% | 2.4 | -15 | -19 | nt | -2% | -11%
O=C(Nc1ccccn1)C1COc2ccccc2O1 (stereo not given) | 0.2% | 6.5 | -20 | 5 | -51%[inhibitor] | -6% | 7%
N#Cc1ccc2ccn(CC(=O)NCc3ccco3)c2c1 | ? | 2.1 | 3 | -3 | 1% | 0% | 7%
O=C(Nc1ccc(CSc2ccccc2)cc1)c1ccccc1 | nt | 1.1 | 10 | 20 | 28%[15.4 µM] | 13% | 29%
Nn1c(SCC(=O)N2CCCCCC2)nnc1-c1ccco1 | 0.6% | nt | -1 | 6 | 12% | 9% | nt
CCOC(=O)C(NC(=O)NCc1ccccc1)(OCC)C(F)(F)F (stereo not given) | -0.7% | 6.2 | -8 | 9 | 16% | 13% | 11%
CCOc1ccc(Nc2cc(Nc3ccccc3OCC)nc(C=C(C#N)C#N)n2)cc1 | nt | 0.3 | 9 | -2 | 1%[15.4 µM] | 4% | 10%
COc1ccccc1CNS(=O)(=O)CC12CCC(CC1=O)C2(C)C (stereo not given) | -1.2% | -1.1 | 13 | 1 | 25%[15.4 µM] | -21% | 10%
O=C(NCCS(=O)c1ccc(Cl)cc1)c1cccc(Cl)c1 (stereo not given) | nt | -2.9 | -54 | 0 | ? | -9% | 6%
COC(=O)N/N=C/c1cc(Br)ccc1O | nt | 11 | -6 | -1 | -43%[inhibitor] | -9% | -7%
COc1ccc(CNC(=O)C(c2ccco2)N(C(=O)CNS(=O)(=O)c2ccccc2)c2ccccc2C)cc1 (stereo not given) | -0.9% | 3.1 | 12 | -1 | -14% | ? | -2%
COc1ccccc1CNS(=O)(=O)c1cccc2nsnc12 | 1.0% | nt | 6 | 9 | -45%[inhibitor] | 9% | 5%
COC(=O)c1nc(Cl)c(Cl)c(N)c1Cl | ? | -0.1 | 1 | 11 | -1%[15.4 µM] | 19% | 16%
O=c1c2ccccc2nc(-c2ccco2)n1CCCn1ccnc1 | 1.6% | -0.5 | -4 | -1 | 49% | 14% | 4%
COc1cccc(-c2nnc(NC(=O)CCS(=O)(=O)c3ccc(C)cc3)o2)c1 | -3.7% | nt | 3 | -4 | 1% | -17% | nt
Cc1sc2ncnc(N(C)Cc3cccs3)c2c1C | -3.2% | 0.1 | -5 | 13 | -12% | 0%[15.4 µM] | -1%

Molecules listed so far with an aryl thioether with sulfur outside any ring (4):
SMILES | ClpP mod | Menin MLL FP FL | TRPV1 PAM | CtBP-E1A blk | gsp ag | gsp antagonist | Sfp inh
O=C(CSc1nnc(-c2ccccc2)n1C1CCCCC1)N1CCCC1 | 0.4% | -1.6 | -33 | 3 | -3% | -6% | 5%
Clc1ccc(CSc2nnc(-c3ccncc3)s2)cc1 | -0.8% | ? | 0 | 2 | -3%[15.4 µM] | 9% | 13%
O=C(Nc1ccc(CSc2ccccc2)cc1)c1ccccc1 | nt | 1.1 | 10 | 20 | 28%[15.4 µM] | 13% | 29%
Nn1c(SCC(=O)N2CCCCCC2)nnc1-c1ccco1 | 0.6% | nt | -1 | 6 | 12% | 9% | nt

Next entries
SMILES | ClpP mod | Menin MLL FP FL | TRPV1 PAM | CtBP-E1A blk | gsp ag | gsp antagonist | Sfp inh
CC(Nc1nc(N2CCCC2)nc2ccccc12)c1ccccc1 (stereo not given) | ? | 3.3 | -3 | ? | ? | 0% | -1%
CCSc1ccccc1C(=O)NCCc1ccccc1 | -0.4% | -11 | -4 | nt | -31%[inhibitor] | 0% | 17%
C=CCn1c(O)c(C(CC)=Nc2ccccc2NC(=O)CC)c(=O)[nH]c1=O | -0.5% | -0.2 | 10 | 5 | 1% | -5% | 4%
CCCS(=O)(=O)N1CCC(C(=O)NCCCOC(C)C)CC1 | -0.1% | 5.3 | 3 | 4 | -7% | -3% | 7%
C=C1CCN([C@@H](C)C(=O)NCc2cc(OC)c(OC)c(OC)c2)S(=O)(=O)c2ccccc21 | -3.5% | 5.5 | ? | 0 | nt | 5% | 7%
COc1ccc(C(O)Cc2nccn2C)cc1 (stereo not given) | -0.8% | nt | nt | nt | -17% | 6% | nt
O=C(O)C1C2C=CC(C2)C1C(=O)NCCCN1CCCC1=O (stereo not given) | -3.8% | nt | -5 | -18 | 24% | 15% | 2%
CCOc1cccc(Nc2cc3n(c(=O)n2)CCc2cc(OC)c(OC)cc2-3)c1 | -1.0% | 5.2 | -2 | -2 | ? | -2% | 15%
CC(NC(=O)c1ccc(S(=O)(=O)NCc2ccco2)cc1)c1ccc(F)cc1 (stereo not given) | -1.3% | nt | 7 | 1 | 21% | 2% | nt
O=C(CCc1nnc(CCCCc2ccccc2)o1)N(CCO)Cc1ccccc1 | 0.9% | -1.7 | 5 | 3 | 0% | -4% | 4%
CN(C1CCCCC1)S(=O)(=O)c1ccc(S(=O)(=O)N(CC(=O)Nc2ccccc2)C2CC2)cc1 | -6.4% | 7.5 | 20 | nt | 16% | -24% | 23%
CCN(CC)CCN(C(=O)c1cc2c(ccc3ccccc32)oc1=O)c1nc2cc3c(cc2s1)OCCO3 | 3.6% | -1.5 | -14 | -25 | 32% | -2% | 40µM*
CCN(CC)C(=O)Oc1cc(=O)n(C)c2ccccc12 | -20% | 0.2 | 0 | -4 | 2% | -7% | 9%
CC(OC(=O)CNC(=O)c1sc2ccccc2c1Cl)c1ccccc1 (stereo not given) | -6.7% | nt | 6 | nt | ? | -6% | nt
Cc1ccc(C(=O)N[C@@H](Cc2ccccc2)C(=O)N2CCC3(CC2)NCCc2[nH]cnc23)cc1C | 0.5% | nt | 7 | nt | 4% | 0% | 6%
O=[N+]([O-])c1cc2c(cc1CN1CCN(c3ccccc3F)CC1)OCO2 | -1.7% | 1.4 | -7 | -16 | -1% | -7% | -8%
CN(C(=O)c1ccc(NC(=O)Cc2cccc(NC(=O)C3CCCN(C(=O)C4CCCC4)C3)c2)cc1)C1CC1 (stereo not given) | -0.2% | nt | nt | -1 | nt | -7% | nt
COc1ccc(C(=O)CC(=O)c2ccc(OC)cc2)cc1 | 0.4% | 1.6 | -3 | 22 | -4%[15.4 µM] | -15% | 12%
CCC(=O)Nc1nc(C)c(-c2csc(Nc3ccc(S(=O)(=O)Nc4cc(C)on4)cc3)n2)s1 | nt | 3.8 | -1 | nt | nt | nt | -17%
COC(=O)c1ccc(N(CC(=O)NC2CCCC2)C(=O)CNC(=O)c2ccco2)cc1 | 0.8% | 1.2 | -1 | 0 | 3% | -10% | 7%
N=c1c2c(n(Cc3ccc(Cl)cc3)c3c1CCC3)CCC2 | -0.7% | 2.7 | -10 | -1 | -8% | -6% | -4%
Cc1ccc(CCNC(=O)CS(=O)Cc2nc(-c3ccccc3F)oc2C)cc1 (stereo not given) | -7.4% | -2.2 | 8 | -3 | 7% | 12% | -17%
CCOc1cc(/C=C/c2cc(C(=O)O)c3ccccc3n2)ccc1OC | -4.2% | 19 | 17 | 9 | 6% | 32%[activator] | -7%
COc1cc(N=Nc2c(O)c3ccccc3[nH]c2=O)c(OC)cc1N=Nc1ccccc1 | nt | 2.4 | 15 | -8 | -28% | 8% | -8%
CC(C)(C)C(=O)Nc1sc(-c2ccccc2)cc1C(=O)O | nt | 4.3 | 8 | -3 | -2%[15.4 µM] | -28% | 0%

Next structures
SMILES | ClpP mod | Menin MLL FP FL | TRPV1 PAM | CtBP-E1A blk | gsp ag | gsp antagonist | Sfp inh
CC1CCC(NC(=O)CN2C(=O)c3cccnc3Oc3ccc(Cl)cc32)CC1 (stereo not given) | 0.7% | nt | -20 | -14 | -3% | 0% | -3%
NC(=S)NN=C(c1ccc(Br)cc1)C1CC1 | -2.3% | nt | nt | -2 | -3% | -7% | nt
COc1cc(S(=O)(=O)NCc2cccnc2)ccc1F | -0.1% | 0.8 | 27 | -1 | -36%[inhibitor] | 3% | 13%
O=C(CCn1c(=O)oc2ccccc21)Nc1ccon1 | 0.7% | -0.4 | 10 | 0 | 0% | 3% | 19%
COc1ccc(-c2cc(C(=O)NCCCN3CCOCC3)no2)cc1 | -2.2% | 0.9 | -1 | 17 | 6%[15.4 µM] | 5% | 18%
CCOc1ccc(C2NC(=O)c3ccccc3O2)cc1OC (stereo not given) | 4.3% | 2.3 | 3 | nt | 16% | -3% | 15%
Cn1c(-c2cccc([N+](=O)[O-])c2)[n+](C)c2ccccc21 | 0.5% | -3.1 | -5 | 15 | ? | 5% | 6%
O=C(CSC(=S)N1CCCC1)NCCc1ccccc1 | 0.1% | nt | -5 | 0 | -3%[15.4 µM] | -5% | nt
CCn1ccnc1CN1CCCC(C(=O)c2ccc3c4c(cccc24)CC3)C1 (stereo not given) | nt | 2.8 | -6 | 0 | 0% | -1% | ?
